Assay outcomes (PubChem)
Lassa entry inh – Lassa virus entry inhibition; Lassa virus pseudotype entry inhibition, cell reporter; control for the full effect not named in the record; Potency, µM (doses to about 37.9 µM), without a hit: at the top dose activity change, negative = inhibition, usual class: inhibitors; hit rate 1.2% among 300,000; AID 540256; active means well fitted inhibition curve with a large enough effect; inconclusive means small, poorly fitted or top-dose-only effect, or effect the other way; inactive means flat fitted curve, though single readings scatter; tested in HEK293 cells; further: on the % scale 0 is the no-effect control and ±100 the full control effect; nearly all actives have a fitted effect of over 50% in size; luciferase read-out
Cruzain Triton – blocks cruzain activity in presence of Triton detergent | purified cruzain, Z-FR-AMC fluorescence, 0.01% Triton | AID 1478 | Potency, µM, for the others: max response, negative = inhibition, most hits filed as inhibitors | hit rate 0.43% among 200,000 | P25779;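 further: plate controls were neutral wells for no effect and buffer without enzyme for full effect; nearly all actives have a fitted effect of over 40% in size; top concentration of the series not given in the record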
Target sequence (P25779 123-467 limits assumed): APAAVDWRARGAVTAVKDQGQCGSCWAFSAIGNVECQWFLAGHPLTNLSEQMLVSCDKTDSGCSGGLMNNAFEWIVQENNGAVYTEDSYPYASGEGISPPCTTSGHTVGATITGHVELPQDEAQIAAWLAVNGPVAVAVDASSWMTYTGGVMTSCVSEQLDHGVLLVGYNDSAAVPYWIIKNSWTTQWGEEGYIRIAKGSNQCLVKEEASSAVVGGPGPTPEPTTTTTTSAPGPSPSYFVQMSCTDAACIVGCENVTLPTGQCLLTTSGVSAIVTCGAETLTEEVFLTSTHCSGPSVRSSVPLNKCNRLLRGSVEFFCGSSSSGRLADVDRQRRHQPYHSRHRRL
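15 min RT preincubation of 1.5 nM cruzain with compound, then 2 uM Z-FR-AMC added; kinetic AMC fluorescence, 60 s delta. Triton X-100 0.01%, pH 5.5.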
StopGo reporter – lowers the luciferase signal of an FMDV 2A StopGo reporter. human cells with a luciferase reporter of 2A StopGo recoding; control for the full effect not named in the record. hit rate 1.2% among 410,000. Potency, µM (series often up to 57.9 µM), inactives show top-dose signal change, negative = less light. AID 1159524; active = well fitted falling curve with a large enough effect; inconclusive = small, poorly fitted or top-dose-only effect; inactive = no such curve, though single readings can be large or run the other way; tested in HEK293T cells; further: on the % scale 0 is the no-effect control and ±100 the full control effect; nearly all actives have a fitted effect of over 45% in size; luciferase light after 4 h
RE007 growth inh – less growth of the S. pombe RE007 Vpr strain | S. pombe RE007 Vpr strain, BacTiter-Glo ATP luminescence, 24 h; control for the full effect not named in the record | Potency, µM (titrated, usually from 92.2 µM), without a hit: top-dose activity change, negative = less growth | hit rate 0.21% among 360,000; active = well fitted falling curve with a large enough effect; inconclusive = small, poorly fitted or top-dose-only effect; inactive = no such curve, though single readings can be large or run the other way;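 further: on the % scale 0 is the no-effect control and ±100 the full control effect; nearly all actives have a fitted effect of over 50% in size; the assay follows cell death caused by Vpr and the record does not say whether a fall means rescue or toxicity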
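Fission yeast strain RE007, carrying one chromosomally integrated HIV-1 vpr copy, was seeded at OD 0.01 in PMG+AL medium with 23 nL pinned compound. After 24 h at 30 °C and 99% humidity, viability was read by BacTiter-Glo luminescence.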
Marburg entry inh – inhibitors of Marburg virus binding or cell entry; Potency, µM (top dose mostly 37.8 µM), for inactives: at the highest dose activity change, negative = inhibition, most hits filed as inhibitors; Marburg virus pseudotyped entry inhibition, cell reporter; control for the full effect not named in the record; about a third of the inactives were read at about 46 µM; hit rate 1.8% among 300,000; active = well fitted inhibition curve with a large enough effect; inconclusive = small, poorly fitted or top-dose-only effect, or effect the other way; inactive = flat fitted curve, though single readings scatter; tested in HEK293 cells; about a fifth of its hits are not listed in these tables; further: on the % scale 0 is the no-effect control and ±100 the full control effect; luciferase read-out
Cruzain noTriton – cruzain (T. cruzi) inhibition without detergent; purified cruzain, Z-FR-AMC fluorescence, no detergent; P25779; hit rate 2.3% among 200,000; Potency, µM, for inactives: max response, negative = inhibition, most hits filed as inhibitors;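 further: plate controls were enzyme without inhibitor for no effect and buffer without enzyme for full effect; nearly all actives have a fitted effect of over 40% in size; top concentration of the series not given in the record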
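Purified cruzain at 1.5 nM, pre-incubated 15 min with compound at room temperature in 100 mM sodium acetate pH 5.5, 5 mM DTT, 0.00005% Triton X-100. Reaction started with 2 uM Z-FR-AMC; AMC fluorescence increase over 60 s gives rate.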
SARS PLpro yeast – inhibitors of SARS-CoV papain-like protease in yeast; AID 485353; S. cerevisiae expressing SARS-CoV PLpro, growth rescue; control for the full effect not named in the record; Potency, µM (doses to about 32.9 µM), without a hit: top-dose activity, positive = growth rescue; hit rate 0.19% among 330,000; active means well fitted rising curve with a large enough effect; inconclusive means small, poorly fitted or top-dose-only effect; inactive means no such curve, though single readings can be large or run the other way; further: 0% is about no effect; nearly all actives have a fitted effect of over 55% in size; growth read by luminescence after 48 h
NS1 function inh – inhibitors of influenza NS1 protein function; S. cerevisiae slowed by influenza A NS1, growth recovery by OD600; hit rate 0.4% among 270,000; Potency, µM (titrated, usually from 46.1 µM), without a hit: at the highest dose activity, positive = more growth; AID 2326; active means well fitted rising curve with a large enough effect; inconclusive means small, poorly fitted or top-dose-only effect; inactive means no such curve, though single readings can be large or run the other way; further: nearly all actives have a fitted effect of over 50% in size
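Read-out: OD600 growth recovery of NS1-expressing budding yeast. Cells grown overnight at 30C in -URA glucose medium, washed, resuspended and diluted 1:100 in 2% galactose assay medium, pH 6.0. Same strain lacking NS1 served as positive control.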
* hit, by the source's call; u = inconclusive; x = not tested or not shown; [ ] = another dose, or the depositor's remark. Unless noted, the call rests on the fitted dose curve; in most records, active means well fitted curve in the direction sought with a large enough effect; inconclusive means small, poorly fitted or top-dose-only effect, or another doubt; inactive means no such curve, though single readings can be large; an effect the other way counts as inactive or inconclusive. Potency means the concentration at half of the fitted maximal effect.

SMILES	Lassa entry inh	Cruzain Triton	StopGo reporter	RE007 growth inh	Marburg entry inh	Cruzain noTriton	SARS PLpro yeast	NS1 function inh
C=CCNc1nc2c(c(=O)n(C)c(=O)n2C)n1CC	x	-1.6%	-16.3%	-2.8%	x	-12.4%	15.7%	-21.0%
COCCn1nnnc1C(CC(C)C)N1CCN(c2nc3ccccc3s2)CC1 (stereo unspecified)	1.8%[46.1 µM]	x	-7.7%	5.2%	22.2%[46.1 µM]	x	-0.3%	-0.1%
CC(C)OC(=O)C1CC=CCC1C(=O)Nc1ccc(Cl)cc1 (stereo unspecified)	5.4%	-3.8%	-7.4%	-13.9%	16.9%[46.1 µM]	1.8%	0.3%	-5.5%
O=C(C(Cc1ccccc1)n1cccc1)N1CCN(c2ccccc2)CC1 (stereo unspecified)	x	-5.3%	0.0%	3.8%	x	-9.9%	-11.5%	-23.9%
COCCOC(=O)C1=C(C)N=C2SCCC(=O)N2C1c1cccc(Br)c1 (stereo unspecified)	23.7%	-1.9%	12.1%	15.3%[3.69 µM]	3.9%	-2.4%	0.1%	-7.1%
COc1ccccc1-c1nnc(NC(=O)c2ccc3c(c2)OCO3)s1	u	x	16.7%	1.1%	1.2%[46.1 µM]	x	-0.1%	9.3%
CCCCC(=O)NC(=S)Nc1cccc(NC(=O)c2ccccc2)c1	5.1%	x	2.6%	0.8%	u	x	-0.8%	x
COc1ccc(C=O)cc1Cn1ccnc1C	-2.9%	x	-0.7%	3.4%	23.8%[46.1 µM]	x	0.1%	-2.3%
CC(=O)N1c2ccc(S(=O)(=O)N3CCC(C(=O)N4CC(C)CC(C)C4)CC3)cc2CC1C (stereo unspecified)	0.2%[46.1 µM]	x	-3.4%	2.8%	-34.3%[46.1 µM]	x	1.2%	7.8%
COc1ccc(NC(=O)NCCN2CCCCC2)cc1	x	x	5.2%	0.2%	x	x	-0.3%	-8.2%
COC(=O)c1ccc(CN2CCCC(C(=O)c3ccccc3OC)C2)cc1 (stereo unspecified)	x	x	-24.3%	-8.9%	x	x	7.3%	9.0%
Cc1noc(C)c1S(=O)(=O)Nc1ccc(C(=O)NC2CCCCC2)cc1	17.0%	-2.0%	0.0%	1.4%	10.1%	1.3%	-6.8%	-1.5%
Cc1ccc(-c2[nH]n3c(=O)c4c(nc3c2C)CCCC4)cc1	4.9%	-0.3%	34.8%[activator]	-3.5%[3.69 µM]	17.4%	0.6%	-1.1%	u
CCCCc1nnc(NC(=O)c2ccc(N3CCCC3=O)cc2)s1	4.4%	x	9.0%	6.2%	13.3%	x	x	x
CCOCc1nnc(NC(=O)c2ccc(OC)cc2)s1	0.0%	-0.7%	0.0%	-2.7%	-0.5%	-3.9%	-4.1%	-13.8%
CC(=O)N1CCOc2cc(S(=O)(=O)NCc3ccc(C)cc3)c(Cl)cc21	-23.5%[46.1 µM]	-0.8%	38.8%[activator]	x	x	4.7%	x	x
Cn1c(NC(=O)/C=C\c2ccccc2)cc(=O)n(C)c1=O	16.9%	x	48.2%[activator]	-2.5%	39.5%[46.1 µM]	x	0.9%	x
Nc1nnn(CC(=O)N/N=C/c2cccc(Cl)c2)n1	11.6%	x	21.7%	2.5%	u	x	-0.9%	5.7%
O=[N+]([O-])c1cccnc1NCCNc1ncc(C(F)(F)F)cc1Cl	7.8%	-10.7%	-6.8%	u	-24.0%	-1.4%	5.4%	6.9%
COc1cc(CN2CCC(C(=O)NCCC(C)C)CC2)ccc1OCc1ccccc1	x	x	24.9%	6.7%	x	x	1.1%	-5.8%
Cc1nc(-c2ccccc2)sc1C1(C)CC(c2ccc(OC(F)(F)F)cc2)=NO1 (stereo unspecified)	x	x	8.1%	-18.1%	x	x	-6.9%	-4.2%
C/C(=N\Nc1ccc(S(=O)(=O)Nc2ccc(Cl)cc2)cc1[N+](=O)[O-])c1ccc(N2CCOCC2)cc1	-0.2%	-6.4%	83.0%[activator]	0.3%	30.2%	10µM*	10.4%	5.6%
Cc1cc(C(=O)Nc2ccccc2C)c2ccccc2n1	1.3%[46.1 µM]	x	-14.7%	3.9%	-0.7%[46.1 µM]	x	4.7%	-1.0%
O=C1CCN(CCc2ccccc2)CCN1[C@H](CSc1ccccc1)c1ccccc1	x	x	12.2%	-5.3%	x	x	-15.0%	-49.7%
COc1ccc(NC(=O)c2ccco2)cc1NC(=O)COc1ccccc1[N+](=O)[O-]	u	x	-9.9%	5.7%	8.4%	x	0.1%	0.7%
COc1ccc(CNC(=O)COC(=O)C2=Cc3ccccc3OC2)cc1	5.0%	x	12.0%	4.4%	-0.3%[46.1 µM]	x	x	x
CC(C)OC(=O)Cc1ccccc1	x	6.6%	-4.1%	9.7%	x	8.6%	3.3%	x
COCC1CCCN(C(=O)c2cc(COc3cncc(Cl)c3)on2)C1 (stereo unspecified)	0.5%[46.1 µM]	x	1.9%	10.5%	20.8%[46.1 µM]	x	-2.0%	-0.6%
COc1ccc(S(=O)(=O)N(C)CC(=O)Nc2ccccc2SC)cc1	-25.0%	-2.5%	-7.6%	6.4%	-20.9%[46.1 µM]	-6.0%	1.3%	-6.1%
O=C(c1ccco1)N1c2ccccc2Sc2ccccc21	u	-4.8%	u	-16.7%	22.4µM*	-19.7%	-50.1%	-33.1%
Cc1ccsc1/C=N/n1c(C2CCCCC2)n[nH]c1=S	-6.2%	0.1%	-20.0%	-5.4%	u	-0.9%	14.7%	13.6%
CCOC(=O)c1c(C)[nH]c(C)c1S(=O)(=O)NCC(=O)NCc1ccc(C)cc1	0.7%[46.1 µM]	0.5%	3.1%	x	x	9.0%	x	x
COc1cccc(/C=C/c2nc(C#N)c(NCCc3ccccc3)o2)c1	0.5%[46.1 µM]	-9.3%	8.3%	x	1.2%[46.1 µM]	29.7%	x	x
O=C(CN1CCN(c2ccc([N+](=O)[O-])cc2)CC1)c1ccccc1	16.1%	x	-7.5%	-10.0%	u	x	-0.2%	-1.4%
Cc1ccc(C(=O)COC(=O)CN2C(=O)C3C4C=CC(C4)C3C2=O)cc1[N+](=O)[O-] (stereo unspecified)	14.2%	x	-9.2%	14.0%	-1.9%[46.1 µM]	x	4.0%	4.7%
Cc1sc(NC(=O)COc2ccc(C(C)(C)C)cc2)c(C(=O)OC(C)C)c1C	18.8%[46.1 µM]	0.9%	-16.5%	x	x	-9.0%	x	x
CC1CCCC(C)N1C(=O)CN1C(=O)NC2(CCOc3ccccc32)C1=O (stereo unspecified)	0.7%	x	43.9%[activator]	-1.3%	u	x	0.0%	x
COc1ccccc1N1CCN(Cc2cc(C)c(C)cc2O)CC1	-7.2%	0.9%	u	-17.1%	u	-0.9%	-3.9%	u
Cc1c(C)c2ccc(OCC(=O)N3CCC(C(=O)O)(c4ccccc4)CC3)cc2oc1=O	x	x	-21.1%	10.3%	x	x	3.9%	u
NC(=O)C1CCN(C(=O)COc2ccc(Nc3ccccc3)cc2)CC1	x	x	29.1%	11.3%	x	x	0.5%	-3.0%
CCn1c(CNC(=O)c2ccc(OC)cc2)nnc1SCC(=O)Nc1ccccc1	u	-0.1%	1.2%	x	1.0%[46.1 µM]	-8.1%	x	x
CCN1C(=O)/C(=C2\SC(=S)N(CC3CCCO3)C2=O)c2ccccc21 (stereo unspecified)	x	5.3%	x	x	-4.9%	4.7%	11.3%	4.2%
COc1cccc(-n2cc(C(=O)Nc3ccccc3C(N)=O)c3ccccc3c2=O)c1	5.5%[46.1 µM]	-9.6%	-24.5%	x	x	-0.5%	x	x
O=c1cnnc(N/N=C/c2ccccn2)[nH]1	x	x	-18.3%	-18.2%	x	x	u	-0.6%
c1ccc2c(c1)Sc1ccccc1-n1cnnc1-2	-3.8%	-1.7%	-15.5%	0.7%	-2.4%	-8.4%	1.8%	-1.2%
Cc1cc(N2CCN(C)CC2)nc2ccc(NC(=O)Nc3cccc(Cl)c3)cc12	u	-8.0%	3.5%	x	x	4.1%	x	x
Cc1ccc(C)c(Cn2c(=O)cc(C(F)(F)F)c3c(C)nn(C)c32)c1	10.0%[46.1 µM]	-1.3%	-7.6%	x	x	-3.6%	x	x
CC(C(=O)O/N=C(\N)c1ccccn1)c1ccc([N+](=O)[O-])cc1 (stereo unspecified)	x	x	-1.8%	-2.7%	x	x	2.4%	-0.5%
CN(C(=O)CSc1nnc(-c2ccco2)o1)C1CCCCC1	13.5%	4.0%	24.6%	-11.4%	28.5%	5.7%	0.3%	-1.5%
CC(=O)c1ccc(OCc2ccc(Oc3c(Cl)cccc3[N+](=O)[O-])cc2)cc1	12.6%	-3.4%	-25.9%	3.7%	u	-11.1%	-12.0%	7.3%
Cc1cc(C)c(N(CC(=O)NCc2ccccc2)C(=O)c2csnn2)c(C)c1	-7.8%[46.1 µM]	x	-2.4%	-12.2%	-0.2%[46.1 µM]	x	6.5%	-2.4%
O=C(CSc1nnc(-c2ccccc2)o1)c1ccc2c(c1)OCCO2	16.5%	-7.3%	0.0%	-15.3%	18.4%[46.1 µM]	-7.2%	-1.0%	-0.7%
O=C(NCC1COc2ccccc2O1)c1cccc(S(=O)(=O)NCc2ccccc2)c1 (stereo unspecified)	-16.7%	x	-1.0%	9.5%	u	x	4.1%	x
CCCC(=O)NC(Nc1c(C)n(C)n(-c2ccccc2)c1=O)C(Cl)(Cl)Cl (stereo unspecified)	x	x	-1.6%	11.9%	x	x	0.4%	0.5%
COc1c(C(=O)Nc2ccccc2N2CCOCC2)cc2ccccc2c1Br	u	x	u	-9.3%	u	x	x	x
CC[C@H]1C(O)C[C@H]2CCN3C(=O)CCC[C@H]1[C@H]23 (stereo partly specified)	x	-3.7%	-10.1%	4.2%	x	-1.9%	-13.7%	x
